VACV Venus inh = vaccinia inhibition (Venus reporter); Vaccinia virus Venus reporter expression, fluorescence; Potency, µM (series often up to 36.5 µM), for inactives: at the highest dose activity change, negative = inhibition, usual class: inhibitors; hit rate 0.46% among 330,000; AID 720580; active means well fitted inhibition curve with a large enough effect; inconclusive means small, poorly fitted or top-dose-only effect; inactive means no such curve, though single readings can be large or run the other way; tested in A549 cells; further: nearly all actives have a fitted effect of over 30% in size; inactives centre near -10
Vaccinia mCherry = inhibitors of vaccinia virus infection (mCherry reporter signal); Vaccinia virus mCherry reporter infection, fluorescence; about a quarter of the inactives have no number; Potency, µM (titrated, usually from 36.5 µM), for inactives: at the top dose activity change, negative = inhibition, actives largely listed as inhibitors; hit rate 0.63% among 310,000; active = well fitted inhibition curve with a large enough effect; inconclusive = small, poorly fitted or top-dose-only effect; inactive = no such curve, though single readings can be large or run the other way; tested in A549 cells; further: nearly all actives have a fitted effect of over 35% in size; inactives centre near -10
* = called active by the depositor; [ ] = remark or other dose. On the % scale 0 is the no-effect control and ±100 the full control effect; potency means the concentration at half of the fitted maximal effect.

How did Cc1cccc(/N=C/c2c(O)[nH]c3ccccc23)n1 do in these assays?
VACV Venus inh: -9%; Vaccinia mCherry: -18%

Results for CC(C)CCNc1nc2c(-c3ccccc3)nnn2c2ccccc12 ?
VACV Venus inh: -1%; Vaccinia mCherry: 8%

Results for Cn1nc(C(F)(F)F)c(-c2ccccc2)c1N ?
VACV Venus inh: 6%; Vaccinia mCherry: inconclusive

Results for CCc1ccc(NC(=O)C2CCCN(c3nn4cc(-c5ccc(OC)cc5)nc4s3)C2)cc1 (stereo not given) ?
VACV Venus inh: -30%; Vaccinia mCherry: -13%

How did COc1ccccc1CCC(=O)OCC(=O)Nc1ccc(S(N)(=O)=O)cc1 do in these assays?
VACV Venus inh: -2%; Vaccinia mCherry: 3%

What do the screens show for `Cc1ccc(S(=O)(=O)NNC(=O)C2COc3ccccc3O2)cc1` (stereo not given)?
VACV Venus inh: -8%; Vaccinia mCherry: -11%

How did Brc1ccc(-c2cn3c(n2)SCC3)cc1 do in these assays?
VACV Venus inh: -6%; Vaccinia mCherry: inconclusive

How did COc1ccccc1-c1c(C)nn2c(-c3ccccc3)cc(-c3ccccc3)nc12 do in these assays?
VACV Venus inh: -9%; Vaccinia mCherry: -12%

Results for COCCn1c(C)cc(C(=O)COC(=O)c2ccc(Br)o2)c1C ?
VACV Venus inh: -4%; Vaccinia mCherry: -6%

What do the screens show for `COc1ccc(N2CC(NC(=O)c3ccc4ccccc4c3)CC2=O)cc1OC` (stereo not given)?
VACV Venus inh: -10%; Vaccinia mCherry: -1%

Results for Cc1cccc(Oc2ncnc3onc(C)c23)c1 ?
VACV Venus inh: -8%

What do the screens show for `CC(C)(C)c1ccc(C(=O)Nc2ccc(C(=O)OCc3cc(=O)n4ccsc4n3)cc2)cc1`?
VACV Venus inh: -25%; Vaccinia mCherry: inconclusive

What do the screens show for `CC1(C)C2CC[C@]3(C)C(CC=C4[C@@H]5C[C@](C)(CO)CC[C@]5(C(=O)O)CC[C@]43C)[C@@]2(C)CC[C@@H]1O` (stereo not given in full)?
VACV Venus inh: 8%; Vaccinia mCherry: -5%

What do the screens show for `Cc1ccc(-n2c(/C=C/c3ccccc3)nc3ccccc3c2=O)cc1C`?
VACV Venus inh: -25%; Vaccinia mCherry: -28%

Results for CCCCCn1c(=O)[nH]c2cc(C(=O)NCc3ccc(F)cc3)ccc2c1=O ?
VACV Venus inh: 5%; Vaccinia mCherry: -6%

Results for Cc1nc2c(C#N)cnn2c2c1CCN(Cc1ccccc1)N2C ?
VACV Venus inh: -8%; Vaccinia mCherry: inactive

How did Cc1cccc(N(C(=O)Cc2cccs2)C(C(=O)NCc2ccco2)c2ccncc2)c1 (stereo not given) do in these assays?
VACV Venus inh: -13%; Vaccinia mCherry: inactive

How did CCc1ccc(C(C(=O)NC2CCCCC2)N(C(=O)c2csnn2)C2CC2)cc1 (stereo not given) do in these assays?
VACV Venus inh: -8%; Vaccinia mCherry: inactive

Results for COC(=O)c1c(NC(=O)COC(=O)CCNS(=O)(=O)c2ccccc2)sc(C)c1C ?
VACV Venus inh: -24%; Vaccinia mCherry: inconclusive

Results for O=C(O)c1ccc(Cn2c(=S)[nH]c3cc(Cl)ccc3c2=O)cc1 ?
VACV Venus inh: -3%; Vaccinia mCherry: -10%

How did O=c1cc(CN2CC=C(c3ccccc3)CC2)c2c(ccc3ccccc32)o1 do in these assays?
VACV Venus inh: 9%; Vaccinia mCherry: -17%

Results for Cc1cc(C)c(OCCOCCN2CCN(C)CC2)c(Cl)c1 ?
VACV Venus inh: -6%; Vaccinia mCherry: inactive

What do the screens show for `CCOc1ccc(NC(=O)C(=O)NCCc2csc(-c3ccc(C(F)(F)F)cc3)n2)cc1`?
VACV Venus inh: -5%; Vaccinia mCherry: -5%

What do the screens show for `O=C1C(O)=C(O)C(=O)c2ccccc21`?
VACV Venus inh: inconclusive; Vaccinia mCherry: inconclusive

How did O=C(Nc1c(Br)cc2c(c1Br)Cc1cc([N+](=O)[O-])ccc1-2)C(Cl)Cl do in these assays?
VACV Venus inh: -12%; Vaccinia mCherry: inactive

How did COc1ccc(C(=O)N/C(=C\c2ccccc2)C(=O)NC(CCSC)C(=O)O)cc1 (stereo not given) do in these assays?
VACV Venus inh: -12%; Vaccinia mCherry: -13%

What do the screens show for `COc1cc(C2CC(c3ccccc3)=NN2c2ccccc2)ccc1OCC(=O)O` (stereo not given)?
VACV Venus inh: 1%; Vaccinia mCherry: inactive

Results for COc1ccc(Cn2cc(CN(C)C3CN(Cc4cn(Cc5ccc(OC)cc5)nn4)S(=O)(=O)C3)nn2)cc1 (stereo not given) ?
VACV Venus inh: -9%; Vaccinia mCherry: -8%

Results for CCOC(=O)CNC(=O)C1c2ccccc2Oc2ccccc21 ?
VACV Venus inh: -10%; Vaccinia mCherry: -14%

Results for Oc1c(Br)cccc1/C=N/Nc1c(F)c(F)c(F)c(F)c1F ?
VACV Venus inh: -13%; Vaccinia mCherry: -1%

How did CC(C)CCn1c(N2CCN(c3cccc(Cl)c3)CC2)nc2c1c(=O)[nH]c(=O)n2C do in these assays?
VACV Venus inh: 1%; Vaccinia mCherry: -14%

What do the screens show for `CCC(=O)N1CCc2cc(Br)cc(S(=O)(=O)CCC(=O)N(CC)Cc3ccccc3)c21`?
VACV Venus inh: -12%; Vaccinia mCherry: -4%

Results for COc1cccc(C2c3cc4c(cc3OC(N3CCOCC3)C2C)OCO4)c1O (stereo not given) ?
VACV Venus inh: inconclusive; Vaccinia mCherry: -14%

How did COc1ccc(CCN2C(=O)CSC2=Nc2ccc(C(C)C)cc2)cc1OC do in these assays?
VACV Venus inh: -30%; Vaccinia mCherry: -19%

What do the screens show for `Cc1nnc(N2C(=O)C(O)=C(C(=O)c3ccco3)C2c2ccc(C(C)(C)C)cc2)s1` (stereo not given)?
VACV Venus inh: -13%

What do the screens show for `O=C(COC(=O)c1ccc(Cl)c(S(=O)(=O)N2CCCC2)c1)NC1CCCC1`?
VACV Venus inh: -21%

Results for CC(C)Cc1nn2c(N)c(/C=C3\C=Nc4ccccc43)c(=O)nc2s1 ?
VACV Venus inh: 1%; Vaccinia mCherry: -2%

How did O=C(Cn1ccc2cc(S(=O)(=O)N3CCCCCC3)ccc21)NCCc1ccccc1Cl do in these assays?
VACV Venus inh: -17%; Vaccinia mCherry: -4%

What do the screens show for `CNC(=O)OCc1cccc(COC(=O)NC)n1`?
VACV Venus inh: -8%; Vaccinia mCherry: -26%

Results for CCN(CC)c1ccc(/C=C2\C=Cc3ccccc32)cc1 ?
VACV Venus inh: -4%; Vaccinia mCherry: -4%

What do the screens show for `COc1ccccc1NC(=O)c1cc(S(=O)(=O)N2CCc3ccccc32)ccc1F`?
VACV Venus inh: -8%; Vaccinia mCherry: -7%

Results for CCc1ccccc1NC(=O)c1c(NC(=O)c2ccccc2)sc2c1CCCC2 ?
VACV Venus inh: 3%; Vaccinia mCherry: -6%

What do the screens show for `Cc1ccc(C(=O)c2oc3ccccc3c2NC(=O)c2cc(-c3ccccc3)on2)cc1`?
VACV Venus inh: -11%; Vaccinia mCherry: -23%

What do the screens show for `Cc1ccc(-c2cc(C(=O)Nc3ccc(S(=O)(=O)N4CC(C)OC(C)C4)cc3)[nH]n2)c(O)c1` (stereo not given)?
VACV Venus inh: -11%; Vaccinia mCherry: -27%

Results for CCN(CC(=O)Nc1c(F)cccc1F)C(=O)CNC(=O)c1ccc2ccccc2c1 ?
VACV Venus inh: -4%; Vaccinia mCherry: -12%

What do the screens show for `NC(=O)NC(=O)C(Nc1ccc(N2CCCCC2)cc1)c1ccccc1` (stereo not given)?
VACV Venus inh: 11%; Vaccinia mCherry: inconclusive

What do the screens show for `N#Cc1ccccc1OCC(=O)NNC(=O)CCC1CCCC1`?
VACV Venus inh: -7%; Vaccinia mCherry: inactive

What do the screens show for `O=C(CNC(=O)c1ccccc1)c1ccccc1`?
VACV Venus inh: -13%; Vaccinia mCherry: inactive

How did S=c1[nH]nc(-c2ccccc2)n1-c1ccccc1 do in these assays?
VACV Venus inh: -8%; Vaccinia mCherry: 24%

Results for O=C(CSc1nc2ccccc2c(=O)[nH]1)Nc1ccc(C(=O)O)cc1 ?
VACV Venus inh: -8%; Vaccinia mCherry: -4%

How did O=S(=O)(O)c1cccc2cccc(Nc3ccccc3)c12 do in these assays?
VACV Venus inh: -3%[7.34 µM]; Vaccinia mCherry: -9%[7.34 µM]

What do the screens show for `Cc1cc(NC(=O)CSCC(=O)OCC(=O)c2ccc(Br)cc2)no1`?
VACV Venus inh: -10%; Vaccinia mCherry: inactive

Results for Cc1cccc(C(=O)N2CCN(c3ncnc4c3cnn4-c3ccccc3)CC2)c1 ?
VACV Venus inh: 2%; Vaccinia mCherry: -4%

How did CC(=O)N(c1ccccc1)c1ccccc1[N+](=O)[O-] do in these assays?
VACV Venus inh: -15%; Vaccinia mCherry: inactive

How did O=C(Cc1cccc(NC(=O)C2CCN(C(=O)C3CCC3)CC2)c1)Nc1cccc(C(=O)N2CCCC2)c1 do in these assays?
VACV Venus inh: -21%; Vaccinia mCherry: -31%

Results for Cc1ccc(NC(=O)C(=O)NCCN2CCN(C(=O)C(c3ccccc3)c3ccccc3)CC2)cc1 ?
VACV Venus inh: -6%; Vaccinia mCherry: inactive

Results for O=C(Nc1ccc(Br)cc1C(=O)c1ccccc1)c1ccccc1 ?
VACV Venus inh: 6%; Vaccinia mCherry: -7%

How did CCOc1ccc(-c2nc(Cn3c(=O)cc(C)c4c(C)nn(-c5ccccc5)c43)c(C)o2)cc1 do in these assays?
VACV Venus inh: 5%; Vaccinia mCherry: 2%

How did O=S(=O)(c1cccs1)N1CCCCC1 do in these assays?
VACV Venus inh: 5%; Vaccinia mCherry: inactive

How did NNC(=O)c1[nH]c2ccc(Br)cc2c1-c1ccccc1 do in these assays?
VACV Venus inh: inconclusive; Vaccinia mCherry: inconclusive

Twelve compounds out of the list, arranged by number of heavy atoms, highest first:
Results for Cc1ccc(NC(=O)C(=O)NCCN2CCN(C(=O)C(c3ccccc3)c3ccccc3)CC2)cc1 ?
VACV Venus inh: -6%; Vaccinia mCherry: inactive

What do the screens show for `CC1(C)C2CC[C@]3(C)C(CC=C4[C@@H]5C[C@](C)(CO)CC[C@]5(C(=O)O)CC[C@]43C)[C@@]2(C)CC[C@@H]1O` (stereo not given in full)?
VACV Venus inh: 8%; Vaccinia mCherry: -5%

What do the screens show for `Cc1ccc(-c2cc(C(=O)Nc3ccc(S(=O)(=O)N4CC(C)OC(C)C4)cc3)[nH]n2)c(O)c1` (stereo not given)?
VACV Venus inh: -11%; Vaccinia mCherry: -27%

Results for CCN(CC(=O)Nc1c(F)cccc1F)C(=O)CNC(=O)c1ccc2ccccc2c1 ?
VACV Venus inh: -4%; Vaccinia mCherry: -12%

Results for Cc1cccc(C(=O)N2CCN(c3ncnc4c3cnn4-c3ccccc3)CC2)c1 ?
VACV Venus inh: 2%; Vaccinia mCherry: -4%

Results for CCc1ccccc1NC(=O)c1c(NC(=O)c2ccccc2)sc2c1CCCC2 ?
VACV Venus inh: 3%; Vaccinia mCherry: -6%

How did COc1ccc(CCN2C(=O)CSC2=Nc2ccc(C(C)C)cc2)cc1OC do in these assays?
VACV Venus inh: -30%; Vaccinia mCherry: -19%

What do the screens show for `O=C(COC(=O)c1ccc(Cl)c(S(=O)(=O)N2CCCC2)c1)NC1CCCC1`?
VACV Venus inh: -21%

Results for O=C(Nc1ccc(Br)cc1C(=O)c1ccccc1)c1ccccc1 ?
VACV Venus inh: 6%; Vaccinia mCherry: -7%

Results for O=C(O)c1ccc(Cn2c(=S)[nH]c3cc(Cl)ccc3c2=O)cc1 ?
VACV Venus inh: -3%; Vaccinia mCherry: -10%

Results for Oc1c(Br)cccc1/C=N/Nc1c(F)c(F)c(F)c(F)c1F ?
VACV Venus inh: -13%; Vaccinia mCherry: -1%

What do the screens show for `O=C1C(O)=C(O)C(=O)c2ccccc21`?
VACV Venus inh: inconclusive; Vaccinia mCherry: inconclusive

Next part.
What do the screens show for `Cc1ccc(NC(=O)C2CCCN2S(=O)(=O)c2ccc(F)cc2)c(C)c1` (stereo not given)?
VACV Venus inh: -10%; Vaccinia mCherry: -18%

How did COc1cccc(OC)c1C(=O)NNC(=O)c1cccc(COc2ccc3c(c2)CCC3)c1 do in these assays?
VACV Venus inh: -13%; Vaccinia mCherry: -27%

What do the screens show for `CCOC(=O)COc1ccc(CC)cc1C(=O)c1ccn2nc(-c3ccc(F)cc3)cc2n1`?
VACV Venus inh: -14%; Vaccinia mCherry: -17%

Results for Cc1cccc(N2C(=O)c3cccc(Oc4ccc(Cl)cc4)c3C2=O)c1 ?
VACV Venus inh: -3%; Vaccinia mCherry: inactive

Results for CC1CCCN(S(=O)(=O)c2ccccc2[N+](=O)[O-])C1 (stereo not given) ?
VACV Venus inh: -14%; Vaccinia mCherry: -20%

How did COC(=O)C1CCCCN1Cc1nc(N2CCCN(C(C)=O)CC2)c2ccccc2n1 (stereo not given) do in these assays?
VACV Venus inh: -5%; Vaccinia mCherry: -8%

What do the screens show for `COC(=O)C1=CN(c2ccc(OC)cc2)C(N)=C(C#N)C1c1cccc2ccccc12` (stereo not given)?
VACV Venus inh: -15%; Vaccinia mCherry: inconclusive

Results for Cn1nc(-c2ccccc2F)c2cc(C(=O)Nc3cc(F)ccc3F)sc21 ?
VACV Venus inh: -9%; Vaccinia mCherry: -13%

Results for O=C1CC(c2ccco2)CC(O)=C1C=NCCN1CCN(C2CC(=O)N(c3ccccc3)C2=O)CC1 (stereo not given) ?
VACV Venus inh: -12%; Vaccinia mCherry: -1%

How did C=CCn1c(SCC(=O)Nc2cccnc2Cl)nnc1-c1ccc(C(C)(C)C)cc1 do in these assays?
VACV Venus inh: -11%; Vaccinia mCherry: -22%

Results for N#C/C(=N\Nc1ccc(F)cc1)C(=N)N1CCCCC1 ?
VACV Venus inh: -10%; Vaccinia mCherry: -3%
